D2 potentiator – positive allosteric modulators of human D2 dopamine receptor | DiscoveRx D2 beta-arrestin cells, luminescence, 90 min; 100% = 57 uM dopamine signal | potentiation, % (no concentration beside the values) | actives 0.23% (n = 360,000) | AID 624464; active = potentiation of 50% or more; inconclusive = 30% to 50%; inactive = 30% or less;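 further: compound concentration not given in the record; tested on top of an EC20 dose of dopamine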
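D2 cells co-treated with compound plus 50 nM dopamine (EC20) for 90 min at 37 deg C to detect potentiation. Beta-arrestin recruitment was read as enzyme-fragment luminescence after 1 h at ambient temperature. Full response was set by 57 uM dopamine.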
gsp agonist – gsp mutant agonism. Potency, µM (top dose mostly 76.9 µM), for the others: at the top dose activation (cAMP increase), usual class: activators. AID 624287. actives 0.13% (n = 340,000). gsp mutant cells, cAMP HTRF, 30 min; control for the full effect not named in the record; active = well fitted activation curve with a large enough effect; inconclusive = small, poorly fitted or top-dose-only effect, or another doubt; inactive = no such curve, though single readings can be large or run the other way; cell line not stated here;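 further: phosphodiesterase inhibitor Ro 20-1724 added with compounds to block cAMP breakdown; potency means the concentration at half of the fitted maximal effect; nearly all actives have a fitted effect of over 60% in size; about a fifth of the inactives were tested at one dose only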
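Cells in DMEM/10% FBS with G418 were pretreated with compounds in DMSO plus […] (300 uM stock) for 30 min at 37C. cAMP was measured by HTRF (cAMP-d2 plus anti-cAMP antibody-K) after 30 min at room temperature.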
Sfp inh – blocks B. subtilis Sfp PPTase activity | Potency, µM, for the others: max response, negative = inhibition, most hits filed as inhibitors | Q9F4F7 | Biochemical Sfp PPTase activity, qHTS | actives 3.5% (n = 310,000); active means well fitted inhibition curve with a large enough effect; inconclusive means small, poorly fitted or top-dose-only effect, or another doubt; inactive means no such curve, though single readings can be large or run the other way;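 further: the enzyme is Sfp with the accession as filed and its product quenches rhodamine fluorescence; potency means the concentration at half of the fitted maximal effect; 0% = enzyme reaction without inhibitor and -100% = no enzyme wells; top concentration of the series not given in the record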
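After 15 min at room temperature with compound, 15 nM Sfp received 5 uM rhodamine-CoA plus 12.5 uM BHQ-2-ybbR (50 mM Hepes pH 7.6, 10 mM MgCl2). Rate came from the fluorescence difference over 30 min, ex 525/em 598 nm.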
gsp antagonist – antagonists of gsp mutant (McCune-Albright syndrome); AID 624288; actives 0.4% (n = 340,000); gsp-mutant cells, cAMP HTRF, 30 min; control for the full effect not named in the record; Potency, µM (doses to about 76.9 µM), for inactives: at the top dose activity change, negative = inhibition, most hits filed as inhibitors; active = falling curve of any shape with a large fitted effect; inconclusive = falling curve, mostly with a smaller effect; inactive = flat or rising curve; cell line not stated here;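 further: intracellular cAMP measured with PDE inhibitor Ro 20-1724 present during compound exposure; potency means the concentration at half of the fitted maximal effect; on the % scale 0 is the no-effect control and ±100 the full control effect; nearly all actives have a fitted effect of over 65% in size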
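Cells in G418 medium, seeded 16-24 h, 37C; buffer exchange to DPBS + 1 mM CaCl2, 0.5 mM MgCl2, 0.05% BSA; cpds in DMSO + […] (300 uM stock), 30 min 37C; HTRF cAMP detection.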
Menin-MLL FL inh – menin-MLL binding inhibition, fluorescein peptide; Fluorescence polarization, fluorescein-MLL peptide displacement from menin; FP activity change, % at 61.4 µM; 290,000 tested, under 10 active; AID 1766; inconclusive = falling polarisation curve, or a change in total fluorescence; inactive = total fluorescence flat and polarisation flat or rising; no compound was filed as active; the % refers to the polarisation; negative = inhibition;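 further: % of control where 0% means no effect; inhibitors lower the polarisation; unlabelled MLL peptide was the positive control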
TRPV1 PAM – enhances activation of the human vanilloid receptor TRPV1. potentiation, % at 8.33 µM. Q8NER1. AID 540277. TRPV1-expressing cells, Fluo-8 calcium influx, capsaicin EC20 potentiation; host cell line not named in the record; control for the full effect not named in the record. actives 0.02% (n = 320,000); active means potentiation above 80%; inconclusive means 30% to 80%; inactive means below 30%; further: 0% is about no effect
Target sequence (Q8NER1 whole entry, looked up): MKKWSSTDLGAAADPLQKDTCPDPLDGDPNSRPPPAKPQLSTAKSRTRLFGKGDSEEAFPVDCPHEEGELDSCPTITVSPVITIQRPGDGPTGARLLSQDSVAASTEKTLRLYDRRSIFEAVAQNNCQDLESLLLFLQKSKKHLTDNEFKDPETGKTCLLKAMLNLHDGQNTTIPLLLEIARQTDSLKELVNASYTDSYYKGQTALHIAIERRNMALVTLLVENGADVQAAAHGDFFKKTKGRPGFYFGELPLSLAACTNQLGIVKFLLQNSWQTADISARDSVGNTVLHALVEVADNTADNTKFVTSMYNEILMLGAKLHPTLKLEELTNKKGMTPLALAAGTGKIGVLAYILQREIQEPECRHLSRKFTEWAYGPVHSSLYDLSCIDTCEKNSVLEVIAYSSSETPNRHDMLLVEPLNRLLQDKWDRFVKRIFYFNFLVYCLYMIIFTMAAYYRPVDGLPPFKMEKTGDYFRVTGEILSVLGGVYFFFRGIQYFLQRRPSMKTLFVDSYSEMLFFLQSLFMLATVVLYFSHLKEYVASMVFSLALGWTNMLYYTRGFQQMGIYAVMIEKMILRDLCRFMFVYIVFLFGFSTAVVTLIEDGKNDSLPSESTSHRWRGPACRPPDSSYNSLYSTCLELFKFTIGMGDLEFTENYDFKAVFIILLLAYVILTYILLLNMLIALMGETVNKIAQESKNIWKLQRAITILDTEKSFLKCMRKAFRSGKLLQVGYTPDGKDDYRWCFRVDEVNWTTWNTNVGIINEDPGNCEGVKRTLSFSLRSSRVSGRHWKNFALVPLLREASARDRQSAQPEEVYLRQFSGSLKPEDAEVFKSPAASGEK
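Cells expressing TRPV1 were dye-loaded with Fluo-8 and read kinetically: 10 s baseline, 3 min after compound (agonist portion), then 2 min after EC20 capsaicin (allosteric enhancer portion). Calcium-bound dye fluorescence at 480/520 nm.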
ClpP mod – qHTS Assay for Activators of ClpP; purified B. subtilis ClpP, FRET peptide cleavage, 20 min; Potency, µM (highest dose often 57.5 µM), for the others: at the highest dose activity change, negative = active; actives 1.9% (n = 340,000); active = well fitted falling curve with a large enough effect; inconclusive = small, poorly fitted or top-dose-only effect; inactive = no such curve, though single readings can be large or run the other way; further: potency means the concentration at half of the fitted maximal effect; the source files actives as falling curves though it sought activators and does not explain the sign; nearly all actives have a fitted effect of over 65% in size; many hits overshoot -100%
Target sequence (P80244 whole entry, looked up): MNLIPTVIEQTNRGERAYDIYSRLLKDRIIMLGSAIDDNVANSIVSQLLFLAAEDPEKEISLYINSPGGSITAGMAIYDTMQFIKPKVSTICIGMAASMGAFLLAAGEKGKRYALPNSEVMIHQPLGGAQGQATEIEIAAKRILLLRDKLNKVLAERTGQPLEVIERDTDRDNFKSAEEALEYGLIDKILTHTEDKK
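FRET quenching reversal measured ClpP activation: 10 microg/mL B. subtilis ClpP at pH 8 with the FRET-FV decapeptide, read at 430 nm after 320 nm excitation. The 20-min minus 0-min signal was scaled between DMSO/no-enzyme wells and ADEP (5.8 microM final).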
The depositor's hits bear a star; [ ] = dose if it differs, or a comment.

How did CC(=O)Nc1nc(-c2ccc3c(c2)CCN3C(=O)C2CC2)c(C)s1 do in these assays?
D2 potentiator: 4; gsp agonist: inconclusive; Sfp inh: 23%; gsp antagonist: inconclusive; TRPV1 PAM: 7

How did CCCN(CC(=O)Nc1ccccc1OC)C(=O)Cn1[nH]c(=O)c2ccccc2c1=O do in these assays?
D2 potentiator: -4; gsp agonist: -4%; gsp antagonist: 1%; TRPV1 PAM: -5; ClpP mod: -2.5%

What do the screens show for `COC(=O)c1cccc(NC(=O)c2cccnc2)c1`?
D2 potentiator: -8; gsp agonist: 7%; Sfp inh: 10%; gsp antagonist: -3%; Menin-MLL FL inh: -0.4; TRPV1 PAM: -9; ClpP mod: 14µM*

Results for COCCN(C(=O)Cn1nnc2ccccc21)C(C(=O)NC1CCCCC1)c1ccc(OC)cc1OC (stereo not given) ?
D2 potentiator: -11; gsp agonist: 0%; Sfp inh: 9%; gsp antagonist: 1%; Menin-MLL FL inh: 3.9; TRPV1 PAM: -3; ClpP mod: -1.2%

What do the screens show for `Cc1oc2c(C)c(O)ccc2c(=O)c1-c1cnn(-c2ccccc2)c1`?
D2 potentiator: 6; gsp agonist: -3%; Sfp inh: -5%; gsp antagonist: -18%; Menin-MLL FL inh: 4.4; TRPV1 PAM: 1; ClpP mod: -2.8%

What do the screens show for `Cc1ncc(CN2CCCC(CCC(=O)NCc3ccc(F)c(F)c3)C2)s1` (stereo not given)?
D2 potentiator: -6; gsp agonist: 8%[15.4 µM]; Sfp inh: 13%; gsp antagonist: 8%; Menin-MLL FL inh: 1.4; TRPV1 PAM: 9

How did CC(Sc1nc(-c2ccco2)nc2c1c(=O)n(C)c(=O)n2C)C(=O)O (stereo not given) do in these assays?
D2 potentiator: -15; gsp agonist: inconclusive; Sfp inh: 19%; gsp antagonist: 4%; Menin-MLL FL inh: 1.1; TRPV1 PAM: -11; ClpP mod: -18%

How did Cc1nc2cc(NC(=O)c3ccc(N4C(=O)CCC4=O)cc3)ccc2s1 do in these assays?
D2 potentiator: -15; gsp agonist: 5%; Sfp inh: 23%; gsp antagonist: 9%; Menin-MLL FL inh: -1.0; TRPV1 PAM: 3; ClpP mod: -2.7%

Results for O=C(O)CCN1C(=O)c2ccc(NC(=O)c3cccs3)cc2C1=O ?
D2 potentiator: -3; gsp agonist: inconclusive; Sfp inh: 7%; gsp antagonist: -12%; Menin-MLL FL inh: 1.6; TRPV1 PAM: -3; ClpP mod: 32µM*

How did CS(=O)(=O)N(CC(=O)NCCC1=CCCCC1)c1ccc2c(c1)OCO2 do in these assays?
D2 potentiator: -10; gsp agonist: 7%; Sfp inh: -11%; gsp antagonist: 2%; Menin-MLL FL inh: 3.6; TRPV1 PAM: -4; ClpP mod: -2.6%

How did O=C(Nc1nnc(SCc2ccc(F)cc2)s1)C1CC(=O)N(Cc2ccccc2)C1 (stereo not given) do in these assays?
D2 potentiator: -1; gsp agonist: -3%; Sfp inh: 19%; gsp antagonist: -2%; Menin-MLL FL inh: 3.0; TRPV1 PAM: 11; ClpP mod: -1.2%

How did C[C@@H]1COC(=O)[C@H](Cc2ccc(F)cc2)C/C=C\C[C@@H](CC(=O)N[C@H](CO)Cc2ccccc2)C(=O)N1 do in these assays?
D2 potentiator: -13; gsp agonist: -30%[inhibitor]; gsp antagonist: 10%; ClpP mod: -0.1%

How did COc1ccc(Cl)cc1N1C(=O)C2CCCN2C1c1ccccc1F (stereo not given) do in these assays?
D2 potentiator: -5; gsp agonist: 16%; Sfp inh: 17%; gsp antagonist: -6%; Menin-MLL FL inh: 4.3; TRPV1 PAM: -8; ClpP mod: -0.4%

What do the screens show for `CCOc1ccccc1C(=O)NC(C(=O)N(C)c1c(N)n(Cc2ccccc2)c(=O)[nH]c1=O)C(C)C` (stereo not given)?
D2 potentiator: -28; gsp agonist: -5%[15.4 µM]; gsp antagonist: -5%; ClpP mod: 0.8%

Results for Cc1cc(Oc2nc3c(C)cccn3c(=O)c2/C=C(\C#N)S(=O)(=O)c2ccc(Cl)cc2)ccc1Cl ?
D2 potentiator: -10; gsp agonist: 5%; Sfp inh: 17%; gsp antagonist: 2%; Menin-MLL FL inh: -0.3; TRPV1 PAM: 7; ClpP mod: -4.2%

How did C=CCNc1nc(Nc2ccc([N+](=O)[O-])cc2)nc(N2CCCC2)n1 do in these assays?
D2 potentiator: -3; gsp agonist: 7%[15.4 µM]; Sfp inh: 1%; gsp antagonist: -22%; Menin-MLL FL inh: 1.7; TRPV1 PAM: -19

How did COc1c(F)c(F)c(C(=O)Nc2ccccc2N2CCN(C(C)=O)CC2)c(F)c1F do in these assays?
D2 potentiator: 2; gsp agonist: 21%; Sfp inh: 11%; gsp antagonist: -9%; Menin-MLL FL inh: 7.9; TRPV1 PAM: -14; ClpP mod: 0.5%

How did CCc1nc(C)ccc1OCC(=O)N1CCc2c([nH]c3ccccc23)C1c1ccccn1 (stereo not given) do in these assays?
D2 potentiator: -7; gsp agonist: -25%; Sfp inh: 4%; gsp antagonist: -21%; Menin-MLL FL inh: 4.3; TRPV1 PAM: 11; ClpP mod: 0.0%

What do the screens show for `Cc1ccc(OCc2occc2C(=O)O)cc1`?
D2 potentiator: -8; gsp agonist: 35%; gsp antagonist: 0%; ClpP mod: -1.6%

Results for O=C(NC1CCCC1)C(c1cccs1)N(C(=O)c1csnn1)c1ccccc1F (stereo not given) ?
D2 potentiator: -5; gsp agonist: inconclusive; Sfp inh: 0%; gsp antagonist: 4%; TRPV1 PAM: 8

What do the screens show for `Cc1ccc(NC(=O)CCS(=O)(=O)c2cccc3nonc23)cc1`?
D2 potentiator: -3; gsp agonist: 0%[15.4 µM]; Sfp inh: 12%; gsp antagonist: 4%; Menin-MLL FL inh: -1.4; TRPV1 PAM: -20; ClpP mod: -0.6%

How did COc1ccccc1NC(=O)COC(=O)CN1C(=O)C(=O)c2ccccc21 do in these assays?
D2 potentiator: -33; gsp agonist: inconclusive; Sfp inh: 4%; gsp antagonist: 3%; Menin-MLL FL inh: -3.4; TRPV1 PAM: -3

How did CCC(CO)Oc1cc(NCc2cccc(OC)c2)c2ncn(C(C)C)c2c1 (stereo not given) do in these assays?
D2 potentiator: -17; gsp agonist: inconclusive; gsp antagonist: 2%; ClpP mod: -1.3%

How did O=c1c(Cc2c(F)cccc2Cl)c(O)ccn1C1CCCCCC1 do in these assays?
D2 potentiator: 1; gsp agonist: -11%; Sfp inh: 2%; gsp antagonist: inconclusive; Menin-MLL FL inh: -0.7; TRPV1 PAM: 2; ClpP mod: 1.4%

Results for C=CCNc1ncnc2c1[nH]c1ccccc12 ?
D2 potentiator: -9; gsp agonist: -2%; Sfp inh: -1%; gsp antagonist: -24%; Menin-MLL FL inh: 1.0; TRPV1 PAM: -13; ClpP mod: 28µM*

Results for Cc1ccccc1N1CCN(S(=O)(=O)CC23CCC(CC2=O)C3(C)C)CC1 (stereo not given) ?
D2 potentiator: -1; gsp agonist: -41%[inhibitor]; Sfp inh: 1%; gsp antagonist: -1%; Menin-MLL FL inh: 0.7; TRPV1 PAM: -24; ClpP mod: 2.6%

How did CCCNc1ccc(S(=O)(=O)N(CC)CC)cn1 do in these assays?
D2 potentiator: 2; gsp agonist: -3%[15.4 µM]; Sfp inh: 0%; gsp antagonist: -2%; Menin-MLL FL inh: 2.7; TRPV1 PAM: -6; ClpP mod: 0.2%

What do the screens show for `O=C(CSc1ncn(-c2ccccc2)n1)NCc1ccccc1`?
D2 potentiator: 4; gsp agonist: 10%; Sfp inh: 2%; gsp antagonist: 2%; Menin-MLL FL inh: 5.0; TRPV1 PAM: 11; ClpP mod: 1.6%

What do the screens show for `CN(C)c1ccc(C2C3CCCc4ccccc4C3=NN2C)cc1` (stereo not given)?
D2 potentiator: -5; gsp agonist: 7%; Sfp inh: 1%; gsp antagonist: -15%; Menin-MLL FL inh: 0.3; TRPV1 PAM: -4; ClpP mod: 4.0%

How did CCOC(=O)C(NC(=O)CC)C(O)c1cccc([N+](=O)[O-])c1 (stereo not given) do in these assays?
D2 potentiator: -18; gsp agonist: 6%; Sfp inh: 18%; gsp antagonist: 4%; Menin-MLL FL inh: 1.0; TRPV1 PAM: 6; ClpP mod: -4.8%

Results for CCOCCCNS(=O)(=O)c1ccc(NC(=O)CN2C(=O)c3ccccc3C2=O)cc1 ?
D2 potentiator: -4; gsp agonist: -42%; Sfp inh: 5%; gsp antagonist: 2%; Menin-MLL FL inh: 0.9; TRPV1 PAM: -5

Results for CCCN(CCC)c1nc(N)nc(-c2cc(Cl)ccc2OC)n1 ?
D2 potentiator: -9; gsp agonist: 2%; Sfp inh: 17%; gsp antagonist: -5%; Menin-MLL FL inh: 5.3; TRPV1 PAM: -12; ClpP mod: -30%

What do the screens show for `O=C(CNC(=O)c1ccc2ccccc2c1)NCc1ccc(F)cc1`?
D2 potentiator: -9; gsp agonist: 28%[15.4 µM]; Sfp inh: 7%; gsp antagonist: 8%; Menin-MLL FL inh: 1.6; TRPV1 PAM: 27

What do the screens show for `COC(=O)c1ccc(NC(=O)CN2C(=O)c3ccccc3S2(=O)=O)cc1`?
D2 potentiator: -4; gsp agonist: 14%[15.4 µM]; Sfp inh: 22%; gsp antagonist: 0%; Menin-MLL FL inh: -1.7; TRPV1 PAM: 9

How did O=C(CNC(=O)C1COc2ccccc2O1)N/N=C\c1ccc(Br)cc1 (stereo not given) do in these assays?
D2 potentiator: -5; gsp agonist: -7%; Sfp inh: -3%; gsp antagonist: 4%; Menin-MLL FL inh: -4.8; TRPV1 PAM: 24; ClpP mod: -2.5%

What do the screens show for `CCOc1ccccc1-n1c(C)cc(C=O)c1C`?
D2 potentiator: -14; gsp agonist: -7%[15.4 µM]; Sfp inh: 13%; gsp antagonist: 11%; Menin-MLL FL inh: -7.7; TRPV1 PAM: inconclusive; ClpP mod: 2.6%

What do the screens show for `CCCC/C(O)=C1\C(=O)CC(C)(C)CC1=Nc1ccccc1OC`?
D2 potentiator: -17; gsp agonist: -35%; Sfp inh: 3%; gsp antagonist: -20%; Menin-MLL FL inh: 0.0; TRPV1 PAM: -16; ClpP mod: -0.2%
